# D2 PAM: Beta-Arrestin HTS for Positive Allosteric Modulators of the Human D2 Dopamine Receptor: Potentiators. D(2) dopamine receptor (Homo sapiens), P14416. potentiation, % (test concentration not listed). 360,000 tested, 0.23% active. DiscoveRx D2 beta-arrestin cells, luminescence, 90 min; 100% = 57 uM dopamine signal. AID 624464, 2012; active = potentiation of 50% or more; inconclusive = 30% to 50%; inactive = 30% or less;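 also: compound concentration not given in the record; tested on top of an EC20 dose of dopamine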
# Target sequence (P14416 whole entry, looked up): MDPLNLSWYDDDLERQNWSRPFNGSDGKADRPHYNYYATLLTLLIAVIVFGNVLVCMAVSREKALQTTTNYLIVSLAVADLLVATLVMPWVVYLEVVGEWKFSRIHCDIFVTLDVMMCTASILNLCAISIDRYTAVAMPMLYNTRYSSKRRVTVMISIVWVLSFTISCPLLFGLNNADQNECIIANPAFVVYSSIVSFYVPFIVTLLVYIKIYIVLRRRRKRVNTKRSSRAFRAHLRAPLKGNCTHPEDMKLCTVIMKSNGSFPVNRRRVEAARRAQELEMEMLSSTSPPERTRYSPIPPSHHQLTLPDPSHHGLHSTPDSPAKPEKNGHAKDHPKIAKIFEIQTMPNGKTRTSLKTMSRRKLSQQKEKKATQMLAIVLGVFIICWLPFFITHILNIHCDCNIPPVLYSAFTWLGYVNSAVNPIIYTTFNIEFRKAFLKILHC
#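 PathHunter D2 cells, attached overnight at 37 deg C, received compound in DMSO plus dopamine at EC20 (50 nM final) for 90 min at 37 deg C. Beta-arrestin recruitment was read as luminescence after 1 h with detection reagent at ambient temperature.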
# TRPML1 inh: qHTS for Inhibitors of the Human Mucolipin Transient Receptor Potential 1 (TRPML1); Mucolipin-1 (Homo sapiens), Q9GZU1; TRPML1-inducible cells, Ca2+ dye fluorescence, FDSS; hits give low values; inhibition of EC80 agonist-evoked calcium signal; activity change, negative = inhibition, % (test concentration not listed); 390,000 tested, 0.02% active; in the data active means activity change below about -50%; inconclusive means about -30% to -50%; inactive means above about -30%;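 also: stimulus is agonist 54-4 at its EC80 concentration; % is scaled to controls: 0 for no effect and ±100 for the full control effect; compound concentration not given in the record; the text of the record puts the active cut at -80%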
# Target sequence (Q9GZU1 whole entry, looked up): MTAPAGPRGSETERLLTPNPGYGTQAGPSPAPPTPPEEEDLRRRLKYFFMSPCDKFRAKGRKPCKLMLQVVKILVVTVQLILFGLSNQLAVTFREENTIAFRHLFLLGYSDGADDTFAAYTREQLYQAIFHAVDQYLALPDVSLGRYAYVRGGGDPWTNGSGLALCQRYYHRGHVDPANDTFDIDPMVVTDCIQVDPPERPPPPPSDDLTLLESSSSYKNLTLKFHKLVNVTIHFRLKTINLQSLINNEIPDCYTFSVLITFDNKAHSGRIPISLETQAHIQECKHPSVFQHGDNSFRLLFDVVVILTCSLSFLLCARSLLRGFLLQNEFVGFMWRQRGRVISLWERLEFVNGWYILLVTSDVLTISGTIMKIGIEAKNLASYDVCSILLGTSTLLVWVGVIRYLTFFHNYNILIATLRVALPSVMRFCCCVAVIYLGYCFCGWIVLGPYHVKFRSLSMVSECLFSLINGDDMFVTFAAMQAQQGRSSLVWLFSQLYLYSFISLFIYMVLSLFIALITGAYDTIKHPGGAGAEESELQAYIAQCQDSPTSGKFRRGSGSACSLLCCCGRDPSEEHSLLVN
#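 TRPML1-DL cells, Tet-induced overnight (~16 h, 37 °C) at 1,500 cells/well, were loaded with Ca8 no-wash dye plus quencher for 45-90 min at room temperature. Compounds were pinned during FDSS kinetic reading; agonist 54-4 at EC80 (4 uM final) then added.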
# TRPV1 potentiator: HTS Assay for Compounds that Act as Potentiators of the Vanilloid Receptor 1 | TRPV1-expressing cells, Fluo-8 calcium influx, capsaicin EC20 potentiation; host cell line not named in the record; control for the full effect not named in the record | potentiation, % at 8.33 µM | 320,000 tested, 0.02% active; active means potentiation above 80%; inconclusive means 30% to 80%; inactive means below 30%; also: 0% is about no effect
#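 Cells expressing TRPV1 were dye-loaded with Fluo-8 and read kinetically: 10 s baseline, 3 min after compound (agonist portion), then 2 min after EC20 capsaicin (allosteric enhancer portion). Calcium-bound dye fluorescence at 480/520 nm.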
# TRPML1 ag: qHTS for Agonists of the Human Mucolipin Transient Receptor Potential 1 (TRPML1); activation, % (no concentration beside the values); TRPML1-expressing cells, Ca2+ dye fluorescence, FDSS; host cell line not named in the record; reference of the full effect not given here; AID 624414, 2012; 410,000 tested, 0.12% active; in the data active = activation above about 50%; inconclusive = about 30% to 50%; inactive = below about 30%; also: 0% is about no effect; the text of the record puts the active cut at 80%
#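 TRPML1-DL cells, Tet-induced overnight (~16 h, 37 degrees C), loaded 45-90 min at room temperature with Ca8 no-wash calcium dye plus quencher. FDSS fluorescence: 10 s baseline, compound pin-transfer, 110 s agonist read, then EC80 54-4 (4uM final) and 110 s antagonist read.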
# Six1-Eya2 inh: qHTS Assay for Inhibitors of the Six1/Eya2 Interaction; Homeobox protein SIX1 (Homo sapiens) + Protein phosphatase EYA2 (Homo sapiens), …; AlphaScreen GST-Six1/His-Eya2 binding, biochemical; hits give low values; control for the full effect not named in the record; activity change, % (test concentration not listed); 360,000 tested, 0.56% active; in the data active = activity change below about -65%; inconclusive = about -30% to -65%; inactive = above about -30%; also: % is scaled to controls: 0 for no effect and ±100 for the full control effect; compound concentration not given in the record
#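 AlphaScreen luminescence read after one hour at 37 °C in darkness. Pin-transferred compounds met GST-Six1 and His-Eya2 protein (5X stock 250 nM/500 nM) plus glutathione donor and Ni-chelate acceptor beads (5X, 50 ug/mL).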
# CtBP-E1A inh: qHTS Assay for Inhibitors of the CtBP/E1A Interaction | CtBP / adenovirus E1A interaction (AlphaScreen) | AlphaScreen GST-E1A/His-CtBP binding, 1536-well; hits give low values; control for the full effect not named in the record | activity change, % (test concentration not listed) | 340,000 tested, 0.49% active; in the data active means activity change below about -65%; inconclusive means about -30% to -65%; inactive means above about -30%; also: % is scaled to controls: 0 for no effect and ±100 for the full control effect; compound concentration not given in the record
#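 Homogeneous bead-based format: GST-tagged E1A captured on glutathione donor beads, His-tagged CtBP on nickel acceptor beads; compounds precede bead addition by 2 h at 37 °C.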
# * hit, by the source's call; u = inconclusive; x = no result given; & = joins results of further samples.
molecule	D2 PAM	TRPML1 inh	TRPV1 potentiator	TRPML1 ag	Six1-Eya2 inh	CtBP-E1A inh
COc1ccc(NC(=O)N(CCC(C)C)C(C)c2ccccn2)c(OC)c1 (stereo not drawn)	-5	3	x	-1.4	-9	0
O=C(CSC1=NS(=O)(=O)c2cc(Cl)ccc2N1)NCCc1ccccc1	8	1	u	-0.2	8	-5
CC1CCN(C(=O)C2CCCCN2S(=O)(=O)c2cccc([N+](=O)[O-])c2)CC1 (stereo not drawn)	-5	-8	-14	0.3	9	x
Cc1ccc(CC(=O)Nc2nc3ccccc3[nH]2)cc1C	-3	5	-24	-0.4	-1	5
CCOc1ccc(Br)cc1S(=O)(=O)Nc1nc(CN2CCOCC2)nc2sc(C)c(C)c12	-2	-11	-6	0.0	12	-10
CCCN(CCC)S(=O)(=O)c1cc2c(cc1Br)CCN2C(=O)CC	1	2	x	1.1	-1	-5
COc1ccc(NCC(=O)N/N=C/c2cc([N+](=O)[O-])ccc2N2CCCC2)cc1	-6	30	-4	-0.1	-8	x
COc1ccc(NS(=O)(=O)c2ccc(NS(=O)(=O)c3cccs3)cc2)c(OC)c1	2	-9	-24	-0.1	3	5
COc1cc(C(=O)NCc2nnc(SCC(=O)Nc3nc4ccccc4s3)o2)cc(OC)c1OC	12	-6	-3	0.1	-26	-14
CC[C@H](C)[C@@H]1NC(=O)[C@H]([C@@H](C)CC)NC(=O)[C@@H](CC(C)C)NC(=O)[C@H](Cc2ccccc2)NC(=O)[C@H](Cc2ccccc2)NC(=O)[C@@H]2CCCN2C(=O)[C@@H]2CCCN2C(=O)[C@H](C(C)C)NC(=O)[C@H](CC(C)C)NC1=O	-2	4	x	-0.4	6	7
Cc1ccc(S(=O)(=O)N2CCN(c3ccc(N4CCOCC4)nn3)CC2)cc1[N+](=O)[O-]	-7	-4	-26	0.0	2	3
COc1cc(Br)c(S(=O)(=O)Nc2c(C)n(C)n(-c3ccccc3)c2=O)cc1OC	-15	4	-3	-0.1	3	3
Cc1cccc(NC2=NC(=S)N(c3cccc(C(=O)O)c3)C23CCCCC3)c1	-9	8	-5	0.7	-3	x
O=C(CSc1nc(=O)n(CCCN2CCOCC2)c2c1CCC2)Nc1ccccc1F	-3	13	-9	-0.5	-7	4
Cc1cc(OCC(=O)N(C)Cc2ccccc2)ccc1Br	12	x	-17	x	-2	x
Cc1nc2ccccc2cc1O	-1	16	4	-1.3	4	8
CC(C)NC(=S)N/N=C/C1=CCC2CC1C2(C)C (stereo not drawn)	-12	33	-17	2.0	-9	-3
CCNC(=S)Nc1ccc(Oc2ccccc2)cc1	1	7	x	3.5	-6	-1
CC[C@H](C)[C@H](NS(=O)(=O)c1ccc(C)cc1)C(=O)N1CCC(C(=O)N[C@@H](C)C(=O)O)CC1	-12	-8	7	0.0	5	8
COc1ccc(S(=O)(=O)N2CCOC2CNC(=O)C(=O)NCC(C)C)cc1OC (stereo not drawn)	-4	-12	-5	0.1	11	2
CN(CCCC(=O)Nc1ccncc1)S(=O)(=O)c1ccc(Cl)cc1	-5	-5	-5	-0.3	1	-2
Cc1ccc(S(=O)(=O)NN2C(=O)/C(=C/c3cccnc3)SC2=S)cc1	0	2	u	1.0	-9	-2
O=S(=O)(N1CCCCC1)n1c(Cc2ccccc2)nc2ccccc21	-4	6	1	3.3	7	7
COc1ccc(-c2cc(C(=O)Nc3ccc4c(c3)OCO4)no2)cc1OC	-3	19&-8	2	-0.2&-0.6	0	0
Cc1cc(CSC(=N)N)c(CSC(=N)N)cc1C	-20	3	-36	0.1	1	8
CC1CCCN(C(=O)C23CCC(C)(C(=O)C2)C3(C)C)C1 (stereo not drawn)	-4	16	-9	-0.4	-1	0
COC(=O)C(c1ccccc1)C1(O)CC(C)N(C)CC1C (stereo not drawn)	-1	-4	4	1.0	18	-10
CC(=O)N1c2ccc(S(=O)(=O)N3CCC(C(=O)N4CCCC(C)C4)CC3)cc2CC1C (stereo not drawn)	-3	11	1	5.8	4	1
COCCN(C(=O)/C=C/c1cccc([N+](=O)[O-])c1)c1c(N)n(Cc2ccccc2)c(=O)[nH]c1=O	-1	17	-2	2.5	1	0
O=C(COC(=O)c1cc(S(=O)(=O)N2CCCC2)ccc1O)NCc1ccccc1	1	-5	21	-0.7	-1	7

# 6 compounds from above, showing only CtBP-E1A inh and TRPV1 potentiator.
SMILES | CtBP-E1A inh | TRPV1 potentiator
Cc1ccc(S(=O)(=O)NN2C(=O)/C(=C/c3cccnc3)SC2=S)cc1 | -2 | u
CC1CCCN(C(=O)C23CCC(C)(C(=O)C2)C3(C)C)C1 (stereo not drawn) | 0 | -9
Cc1cc(CSC(=N)N)c(CSC(=N)N)cc1C | 8 | -36
O=C(COC(=O)c1cc(S(=O)(=O)N2CCCC2)ccc1O)NCc1ccccc1 | 7 | 21
CC(=O)N1c2ccc(S(=O)(=O)N3CCC(C(=O)N4CCCC(C)C4)CC3)cc2CC1C (stereo not drawn) | 1 | 1
CN(CCCC(=O)Nc1ccncc1)S(=O)(=O)c1ccc(Cl)cc1 | -2 | -5

# Carrying on.
molecule	D2 PAM	TRPML1 inh	TRPV1 potentiator	TRPML1 ag	Six1-Eya2 inh	CtBP-E1A inh
C/C=C/COC(=O)c1[nH]c2c(c1C)C(=O)CC(c1ccc(N(C)C)cc1)C2 (stereo not drawn)	1	31	13	2.2	-15	-15
N/C(=N\OC(=O)c1ccco1)c1cccnc1	25	5	-2	1.0	-1	-7
Cc1c(C(=O)Nc2ccccn2)sc2nc3n(c(=O)c12)CCC3	-18	1	7	-0.5	-7	-3
CCOC(=O)c1c(NC(=O)Cn2nc([N+](=O)[O-])c(Br)c2C)sc2c1CCC(C)C2 (stereo not drawn)	-10	-1	u	-0.5	-1	6
OCC[C@H]1NCc2cc(CO)cc(-c3ccccc3)c21	x	3	x	0.0	-28	2
Cc1cccc(NC(=O)c2cccc(S(=O)(=O)Nc3ccccc3C(=O)O)c2)c1	-1	7	-5	0.6	43	1
O=C(c1cccs1)N1CCN(c2nc3ccc([N+](=O)[O-])cc3s2)CC1	-7	8	6	0.1	3	-5
Cc1ccccc1-n1nc(C(=O)c2cccs2)cc(-c2nc3ccccc3[nH]2)c1=N	-8	-13	5	-0.2	-13	-15
CCSC(C)CC1CC(=O)CC(=O)C1 (stereo not drawn)	-2	13	1	-0.8	1	7
CSc1ccccc1-c1nnc(NC(=O)Cc2ccccc2)o1	-31	9	4	-0.3	-5	-26

# Next records.
SMILES | D2 PAM | TRPML1 inh | TRPV1 potentiator | TRPML1 ag | Six1-Eya2 inh | CtBP-E1A inh
COc1c(C)cc(C(=O)C2CCCN(C(=O)c3ccc4cc[nH]c4c3)C2)cc1C (stereo not drawn) | -1 | -16 | 17 | 0.7 | -7 | -10
COc1ccc(C(=O)Nc2ccccc2C(=O)NC(Cc2c[nH]c3ccccc23)C(=O)O)cc1 (stereo not drawn) | -4 | 8 | 6 | 0.9 | -4 | x
COc1ccccc1CNC(=O)/C=C/c1ccc(Br)o1 | -19 | 42 | 7 | -1.5 | 3 | 14
OCC1(CCCc2ccccc2)CCN(Cc2ccc(F)cc2)CC1 | 1 | 1 | -1 | -0.7 | 4 | -2
O=C(O)CN1C(=O)C2C3C=CC(C3)C2C1=O (stereo not drawn) | -5 | 2 | 17 | -0.7 | -2 | 5
O=C(O)CCCCCCC1C(=O)NC(=O)N1CCC(O)C1CCCCC1 (stereo not drawn) | -4 | 1 | 2 | -0.2 | -2 | 0
C[C@@H]1CCCCO[C@H](CN(C)C(=O)C2CCCCC2)[C@@H](C)CN([C@H](C)CO)C(=O)c2cc(N(C)C)ccc2O1 | -5 | -6 | x | -0.5 | 6 | -16
CCn1ncc(Br)c1C(=O)Nc1ncc(C)s1 | -9 | 10 | 4 | 0.0 | -1 | x
COCCC1CCCCN1C(=O)c1cc(COc2ccc(C)nc2)on1 (stereo not drawn) | -13 | 37 | -10 | 0.8 | -2 | 6
COc1cccc(CC(=O)OCC(=O)c2cc(OC)c(OC)c(OC)c2)c1 | 13 | -3 | x | 0.5 | -3 | 2
c1ccc2nc(N3CCCC3)c(N3CCCCC3)nc2c1 | -1 | -13 | x | 0.0 | 88 | 58
COc1cccc(/C=C2\Oc3cc(OCC(=O)N4Cc5ccccc5C[C@H]4C(=O)O)ccc3C2=O)c1 | -3 | x | 6 | x | -4 | 1

# Reprinted from the part before: 3 entries, then new ones.
SMILES | D2 PAM | TRPML1 inh | TRPV1 potentiator | TRPML1 ag | Six1-Eya2 inh | CtBP-E1A inh
COc1cccc(CC(=O)OCC(=O)c2cc(OC)c(OC)c(OC)c2)c1 | 13 | -3 | x | 0.5 | -3 | 2
c1ccc2nc(N3CCCC3)c(N3CCCCC3)nc2c1 | -1 | -13 | x | 0.0 | 88 | 58
COc1cccc(/C=C2\Oc3cc(OCC(=O)N4Cc5ccccc5C[C@H]4C(=O)O)ccc3C2=O)c1 | -3 | x | 6 | x | -4 | 1
Cc1nc([N+](=O)[O-])cn1-c1ccc(N)cc1 | 6 | -2 | -2 | 0.0 | 4 | 4
CC1CSc2ccccc2NC1=S (stereo not drawn) | 0 | 23 | -5 | 0.5 | -5 | -7
O=C(CSc1nnc(-c2cccc(F)c2)o1)N1CCOCC1 | -8 | 1 | 19 | -0.6 | 10 | 5
CC(/C=C1\SC(=S)N(NC(=O)c2ccc(C)cc2)C1=O)=C\c1ccccc1 | -6 | 28 | -2 | 1.6 | -25 | -22
COc1cccc2cc(C(=O)OC3CCN(C)CC3)c(=O)oc12 | -8 | 2 | 1 | -0.3 | -3 | 7
Cc1ccc(-c2noc(CCCC(=O)Nc3cccnc3)n2)cc1 | 6 | 1 | -2 | -0.9 | 4 | 3
O=C(OCC#CCSc1nc2ccccc2o1)c1cc2ccccc2o1 | -7 | 19 | -4 | 0.8 | 30 | 43
CC1CCN(c2nc(-c3ccncc3)nc3ccccc23)CC1 | -8 | 19 | -16 | 2.4 | -1 | -6
Cn1c(=O)n(CCc2ccccc2)c(=O)c2c1nc1n2CCCN1CCc1ccccc1 | -1 | 59 | 19 | 4.0 | u | u
Cn1c(Cc2csc(N)n2)nnc1SC/C=C/c1ccccc1 | 5 | -15 | -1 | -0.6 | -13 | -5
Cc1ccc(C)c(NC(=O)c2cc(C)nc3ccccc23)c1 | 13 | x | 4 | x | 1 | x
CCCCCOC(=O)C1[C@H]2C(=O)N(CCCOC)C[C@]23C=C[C@H]1O3 (stereo partly drawn) | -1 | -14 | u | 0.6 | 16 | 1

# Screening results as filed in PubChem BioAssay.
